KCNQ2 pot = enhances the rat KCNQ2 potassium channel | O88943 | 310,000 compounds, 0.54% hits | B-score at 10 µM | CHO-K1 KCNQ2, FluxOR thallium flux fluorescence; stronger effect = higher value;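 active means fluorescence ratio B-score at least 3 SD of library B-scores, with initial fluorescence B-score within 3 SD, cut at about 5.3 in these data; same plate scores as AID 2156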;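 further: B-score of peak minus minimum over baseline fluorescence ratio after K+ and Tl+ stimulus; positive B-score means potentiation of KCNQ2 with more thallium influx and brighter signal; only the inactives scoring about 0 or higher are listed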
Target sequence (O88943 whole entry, looked up): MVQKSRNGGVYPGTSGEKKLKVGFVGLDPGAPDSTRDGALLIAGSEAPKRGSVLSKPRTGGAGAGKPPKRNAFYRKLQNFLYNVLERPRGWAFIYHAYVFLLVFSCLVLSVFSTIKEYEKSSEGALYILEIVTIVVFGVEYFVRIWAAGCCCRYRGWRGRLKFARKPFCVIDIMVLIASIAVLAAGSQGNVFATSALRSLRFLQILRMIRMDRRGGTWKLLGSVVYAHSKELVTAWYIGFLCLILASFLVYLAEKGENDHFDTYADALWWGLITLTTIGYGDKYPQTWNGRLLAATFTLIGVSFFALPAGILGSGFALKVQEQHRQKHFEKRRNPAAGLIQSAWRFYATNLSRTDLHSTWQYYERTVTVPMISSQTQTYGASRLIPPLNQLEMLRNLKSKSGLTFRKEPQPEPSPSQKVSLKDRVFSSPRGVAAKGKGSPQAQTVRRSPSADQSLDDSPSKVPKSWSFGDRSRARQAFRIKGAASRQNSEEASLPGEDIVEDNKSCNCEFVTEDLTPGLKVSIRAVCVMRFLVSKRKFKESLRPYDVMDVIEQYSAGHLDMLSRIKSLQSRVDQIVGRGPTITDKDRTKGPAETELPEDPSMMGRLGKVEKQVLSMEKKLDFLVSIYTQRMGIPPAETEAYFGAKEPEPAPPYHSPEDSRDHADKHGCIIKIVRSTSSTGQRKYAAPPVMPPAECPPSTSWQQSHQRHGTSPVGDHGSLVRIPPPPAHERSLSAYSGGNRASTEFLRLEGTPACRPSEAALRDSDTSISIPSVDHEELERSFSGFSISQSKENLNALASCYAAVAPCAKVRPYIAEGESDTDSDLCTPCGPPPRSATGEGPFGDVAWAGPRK
KCNQ2 pot baseline = further read-out of KCNQ2 pot, marked with its call; B-score; compound at 10 µM; measured here: initial fluorescence intensity artifact check;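 brightness before thallium and not channel activity; 0 = typical well and far values either way flag optical interference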
* = called active by the depositor. Some of the compounds tested; rates above refer to the full screens.

KCNQ2 pot,KCNQ2 pot baseline,Molecule
2.6,-1.1,COc1cccc(OCCOCCNCCO)c1
0.53,-1.6,CC(=O)Oc1ccc2c(=O)oc(-c3ccccc3C)nc2c1
0.45,-0.05,COc1ccccc1NC(=O)CCSc1nc(C)cc(C)n1
2.7,0.09,COc1ccc(CNC(=O)C2CCCN(C(=O)Nc3ccc(OC)cc3)C2)cc1 (centres undefined)
1.8,-0.09,Cc1cc(=O)oc2c(C)c(OCC(=O)c3ccccc3)ccc12
1,-1.1,COc1ccc(N2CCN(C(=O)c3ccc(SC)cc3OC)CC2)cc1
0.1,-1.4,CC(C)CNC(=O)c1ccccc1NC(=O)c1ccccc1N(C)S(C)(=O)=O
0.27,1.1,COc1ccc(/C=C/c2c(-c3ccc(OC)cc3)oc3ccc(-c4ccc(OC)cc4)cc23)cc1
0.72,-0.66,CCOC(=O)c1c(C2CC2)csc1NC(C)=O
0.61,-1.2,CN(C)CCNS(=O)(=O)c1ccc2c3c(cccc13)C(=O)N2
4.6,-0.55,CC(C)Cc1nc2oc3c(N4CCN(CCO)CC4)ncnc3c2c2c1CCCC2
1,0.13,COC(=O)c1ccccc1NC(=O)CSc1nnnn1CC(=O)O
1.1,-0.71,CC(C)Cn1c(NCCO)nc2ccccc21
0.36,-1.6,CCOc1ccc(NC(=O)Nc2cnccn2)cc1
0.34,-0.44,Cc1c(OCC(=O)N[C@@H](CSCc2ccccc2)C(=O)O)ccc2c3c(c(=O)oc12)CCC3
0.67,-1.4,COC(=O)c1sccc1NC(=S)Nc1ccc(C)cc1
0.17,-1.8,COc1ccc(/C=C2\SC(=O)N(CCC(=O)Nc3ccc(S(=O)(=O)Nc4nccs4)cc3)C2=O)cc1
1.5,-0.46,Cc1ccc(NC(=O)CC2S/C(=N/c3nccs3)N(C)C2=O)c(C)c1 (centres undefined)
2,0.12,COC(=O)c1ccccc1N(C)S(C)(=O)=O
0.32,2.3,CCOC(=O)C1CCN(c2c(NCCCN3CCCCC3)c(=O)c2=O)CC1
1.5,1.4,O=C(Nc1ccncc1)c1ccccc1-c1ccccc1
0.65,-3,Cc1ccc(CSc2ccc3nnc(-c4cccnc4)n3n2)cc1
8.7*,-1.1*,Cc1ccc(C(C2=C(O)CC(C)(C)CC2=O)C2C(=O)CC(C)(C)CC2=O)o1 (centres undefined)
1.3,-0.04,O=C(O)c1ccc(S(=O)(=O)c2ccc3c(c2)C(=O)N(Cc2ccco2)C3=O)cc1
2.2,-1.8,O=C1c2ccccc2C(O)N1Cc1ccco1 (centres undefined)
1.6,-0.03,COc1ccc(N2C(=O)CSC23CCCCC3)cc1
0.48,0.46,O=C(CSc1nccc(=O)[nH]1)Nc1ccc(F)c(Cl)c1
0.27,1.2,CCc1cccc(C)c1NC(=O)CSc1nnc(-c2ccco2)n1N
1.4,-0.38,COc1ccccc1C(=O)NC(CCSC)C(=O)OC(C)C(N)=O (centres undefined)
11*,-1.6*,CCN1CCN(S(=O)(=O)c2cc(OCC(=O)NC3CCCCC3)c(C)cc2Cl)CC1

Fetched by structure from the list above:
KCNQ2 pot,KCNQ2 pot baseline,Molecule
1,-1.1,COc1ccc(N2CCN(C(=O)c3ccc(SC)cc3OC)CC2)cc1
2,0.12,COC(=O)c1ccccc1N(C)S(C)(=O)=O
0.17,-1.8,COc1ccc(/C=C2\SC(=O)N(CCC(=O)Nc3ccc(S(=O)(=O)Nc4nccs4)cc3)C2=O)cc1
0.36,-1.6,CCOc1ccc(NC(=O)Nc2cnccn2)cc1
1.3,-0.04,O=C(O)c1ccc(S(=O)(=O)c2ccc3c(c2)C(=O)N(Cc2ccco2)C3=O)cc1

Continuation.
KCNQ2 pot,KCNQ2 pot baseline,Molecule
0.52,-0.75,O=C(Nc1nc2c(c(=O)[nH]1)CCCC2)C1CC1
0.07,0.83,Cc1ccc(S(=O)(=O)N2CCC(C(=O)OCC(=O)NC3(C#N)CCCCC3)CC2)cc1C
0.06,0.02,CCCCC(=O)NC1(C(F)(F)F)NC(=O)N(Cc2ccccc2)C1=O (centres undefined)
0.65,-0.76,CC(C)(C)NC(=O)CN1CCC(O)(c2ccc3c(c2)OCO3)CC1
0.68,-0.17,COc1ccc(CCNC(=O)C(=O)NCC2OCCN2S(=O)(=O)c2ccc(OC)c(OC)c2)cc1 (centres undefined)
0.71,0.93,O=C(Cc1ccccc1)NN1C(=O)C2C(C1=O)C1C=CC2C12CC2 (centres undefined)
0.07,-0.64,COC(=O)c1cc(C#N)c(N2CCN(C)CC2)nc1C
1.2,0.28,COc1cccc2c(=O)n(CC(=O)NC3CCCC3)ccc12
1.4,0.97,CC(C)(C)c1csc(NC(=O)c2c(F)c(F)c(F)c(F)c2F)n1
0.81,1.3,CCOC(=O)C1C2C=CC3(CN(CCc4ccccc4)C(=O)C13)O2 (centres undefined)
0.87,0.2,Cc1cccc(OCCCN2CCCCCC2)c1
1.8,0,COc1ccc(C(CNCC(O)COc2c(C)ccc(C)c2C)N(C)C)cc1 (centres undefined)
1.5,0.63,CNC(=O)c1c[nH]c2ccc(S(=O)(=O)Nc3cccc(SC)c3)cc2c1=O
1.9,2.2,O=C(Nc1ncc([N+](=O)[O-])s1)c1cccc([N+](=O)[O-])c1
1.1,-1.1,Cc1nc(Nc2nc(CSc3ccc(Cl)cc3)cc(=O)[nH]2)nc2ccccc12
0.99,-0.65,N=c1n(CCN2CCOCC2)c2ccccc2n1Cc1ccccc1Br
1.4,-0.26,Cc1ccc(C(=O)NCC(=O)Nc2ccncc2)cc1C
0.13,1.6,CC(C)Nc1nc(Cl)nc(Nc2ccccc2)n1
1,-2.2,CCO/N=C(/C)c1c(O)cc(C(C)(C)C)n(-c2ccccc2)c1=O
0.73,0.86,O=C(Nc1cccc(NC(=O)C2CCCO2)c1)c1ccco1 (centres undefined)
0.08,-1.4,COc1cc(NC(=O)C2Cc3ccccc3CN2S(C)(=O)=O)cc(OC)c1 (centres undefined)
0.04,1.9,O=C(CSc1cccc2cccnc12)NCc1ccco1
0.21,0.01,C[C@H]1CC[C@]2(O[C@H](CCO)C[C@H](O)[C@H]2O)O1
0.16,0.21,Cc1noc(C)c1S(=O)(=O)N1CCC(C(N)=O)CC1
1.9,-1.4,O=C(COc1ccc(S(=O)(=O)N2CCCC2)cc1)NCc1ccccn1
0.36,0.24,CCN(CC(=O)Nc1c(F)cccc1F)C(=O)CSc1nc(C)cc(C)n1
0.37,-1.1,O=C(NC1=NCCS1)c1cccc(Br)c1
0.37,1.9,O=C(Nc1nc2c(Cl)ccc(Cl)c2s1)C1CC1
3.2,-0.59,COc1ccc(C2C(C(=O)c3sc(C)nc3C)=C(O)C(=O)N2CCCn2ccnc2)cc1OC (centres undefined)
6.9*,-1.6*,Cc1ccc(/C=C/C(=O)OCc2nc(N)nc(Nc3ccccc3C)n2)o1
0.04,1.1,CCOc1ccc2[nH]c(C)c(CN3CCN(C)CC3)c(=O)c2c1
0.01,-0.01,CC(C)(C)C(=O)NC1CCN(C(=O)N2CCCC2)CC1
0.9,0.3,COc1ccc(C(=O)CN2CCN(S(=O)(=O)c3cccc([N+](=O)[O-])c3)CC2)cc1
0.88,3.1,CC(NC(=O)c1sc2cc([N+](=O)[O-])ccc2c1Cl)C(C)(C)C (centres undefined)
0.05,0.99,CCOC(=O)c1sc(=NC(=O)c2cccc(C)c2)n(C)c1C
0.57,-1.2,CC(=O)c1c(COC(=O)c2ccc(C)cc2)nc2ccccc2[n+]1[O-]
2.2,0.86,CC(CNS(=O)(=O)c1ccc2c(c1)NC(=O)CCS2)c1ccccc1 (centres undefined)
10*,-1.2*,COc1ccc(C(=O)NNC(=O)C(=O)Nc2cccc3ccccc23)cc1
0.14,1.2,CCN(CC)S(=O)(=O)c1ccc(N=NC2=C(O)CC(C)(C)CC2=O)cc1
0.04,-0.59,Cc1cccc(NC(=O)c2c([N+](=O)[O-])cnn2C)c1
0.7,2.8,O=C(NS(=O)(=O)Nc1ccc(Cl)cc1)c1c[nH]c2ccccc12
0.31,-0.75,COc1ccc(OCC(=O)N/N=C/c2ccc(OC)c(OC)c2C(=O)O)cc1
0.15,0.5,CCn1c(CN2CCCCCC2=O)nnc1SCc1cnc(-c2ccccc2)s1
0.92,-0.27,c1coc(CSc2ncnc3c2oc2ccccc23)c1
0.25,0.03,Cc1[nH]nc2c1C1(CCC3(CC1)OCCO3)C(C#N)=C(N)O2
0.8,-0.22,COc1ccccc1OCC(=O)OCC(=O)Nc1ncc(Cl)cc1Cl
0.68,0.1,Cc1ccc(S(=O)(=O)NNC(=O)c2cc([N+](=O)[O-])c(C)c([N+](=O)[O-])c2)cc1
1.6,0.98,CC(Sc1nc2ccccc2c(=O)n1CC1CCCO1)C(=O)NC(C)c1ccccc1 (centres undefined)
2.8,0.81,O=C(NC(=S)Nc1ccc(Cl)c(C(=O)O)c1)c1ccc(OCc2ccccc2)cc1
0.79,-0.11,O=c1c2ccccc2c(-c2ccccc2)nn1-c1ccccc1
0.58,-0.34,Cc1nc(C)n(CCNS(=O)(=O)c2ccccc2)n1
1.5,1.8,COc1cccc(Nc2nc3ccccc3c(=O)[nH]2)c1
0.79,0.25,COc1cccc(CC2(CO)CCN(Cc3cnc(N4CCOCC4)s3)CC2)c1
0.1,0.01,COCc1ccc(C(=O)NC2CCSc3ccccc32)cc1 (centres undefined)
0.14,-1.8,CN(CCNC(=O)CCCOc1cc(=O)n(C)c2ccccc12)Cc1ccccc1
1.7,0.2,COc1ccc(S(=O)(=O)N2CCN(C(=O)CC(C)C)CC2)cc1
0.33,1.8,O=C(NCCS(=O)(=O)NCc1ccccc1Cl)c1ccc2c(c1)OCO2
0.67,-0.71,CCOC(=O)CSc1nc(N)c(C#N)c(-c2cccs2)c1C#N
0.26,1.5,CCn1cnc2c1c(=O)n(CC(=O)OC)c(=O)n2Cc1ccccc1
1.2,-0.15,CCOC(=O)C1CCN(C(=O)/C=C/c2ccc(OC)cc2)CC1

3 entries from above, with values under each structure.
Each structure is followed by: KCNQ2 pot, KCNQ2 pot baseline
CC(CNS(=O)(=O)c1ccc2c(c1)NC(=O)CCS2)c1ccccc1 (centres undefined)
→ 2.2, 0.86
CC(Sc1nc2ccccc2c(=O)n1CC1CCCO1)C(=O)NC(C)c1ccccc1 (centres undefined)
→ 1.6, 0.98
COc1ccc(C(=O)CN2CCN(S(=O)(=O)c3cccc([N+](=O)[O-])c3)CC2)cc1
→ 0.9, 0.3

(continued)
KCNQ2 pot,KCNQ2 pot baseline,Molecule
8.7*,0.94*,O=c1c2ccccc2nc(-c2cccc(Cl)c2)n1O
3.5,-1.1,C=CCN(CC=C)c1ccc(N2C(=O)C3CCCCC3C2=O)cc1[N+](=O)[O-] (centres undefined)
1.6,1.2,CCC(=O)Nc1ccc(NCc2ccc(-c3ccccc3)cc2)cc1
2,0.14,COc1ccccc1-n1cnnc1SCC(=O)N1CC(=O)Nc2ccccc21
1.5,0.17,CCCCCCC(=O)N/N=C(\C)Cc1ccccc1
0.52,-0.09,CC(C)c1ccc(NC(=O)[C@@H](C)NC(=O)[C@@H]2Cc3ccccc3CN2)cc1
2,-1.6,COCCNC(=O)C(c1ccc(C)cc1)N(C(=O)CCC(=O)Nc1ccccn1)c1ccc(F)cc1 (centres undefined)
0.12,0.34,NS(=O)(=O)c1ccc(NC(=O)COC(=O)c2cc(Cl)ccc2[N+](=O)[O-])cc1
0.03,1.8,CCN(CC)c1ccc(CNc2nc3ccccc3n2CC)cc1
0.64,-1.4,Nc1nccnc1C(=O)OCC(=O)c1ccc[nH]1
0.22,0.74,COc1ccc(C(=O)N(CCCO)Cc2cc3c(C)ccc(C)c3[nH]c2=O)cc1OC
2,-1.4,CC(=O)Nc1ccc(N(C(=O)c2ccco2)C(C(=O)NC2CCCC2)c2ccncc2)cc1 (centres undefined)
0.86,1.8,COc1ccccc1-n1c(CNc2c(C)cccc2C)nnc1SCC(=O)N1CCOCC1
0.01,1.1,COc1ccccc1-c1cc(C(F)(F)F)nc(N2CCCC2)n1
1.1,-2.2,CCOC(=O)Cc1cc(=O)n2[nH]c(-c3ccccc3)c(-c3ccccc3)c2n1
0.56,1.5,CCN1C(=O)CC(N2CCC(Nc3ccc(F)cc3)CC2)C1=O (centres undefined)
1.6,-1.9,O=c1c(-c2nnc(SCc3ccc(Cl)c(Cl)c3)o2)cccn1Cc1ccccc1
1.3,-0.68,Cc1ccc2nc(-c3ccc(SCC(=O)Nc4nc(C)cs4)nc3)[nH]c2c1
0.77,-0.61,COC(=O)Oc1ccc(/C=N/NC(=O)CN(c2ccccc2Cl)S(C)(=O)=O)cc1OC
2.8,0.84,CCc1ccc(O)c(CNCCNCc2cc(CC)ccc2O)c1
0.47,-0.38,Cc1c(CCO)sc[n+]1CC(=O)OCCC12CC3CC(CC(C3)C1)C2
1.7,-1.1,Cc1cc(C)[n+](-c2ccc(C(C)C)cc2)c2[nH]c(=O)[nH]c(=O)c12
0.45,-0.81,Cc1nc(NC(=O)COc2ccc(Cl)cc2)sc1C(=O)N(C)C
0.02,0.78,O=C(C1=C(O)C(=O)N(CCN2CCOCC2)C1c1cccc(O)c1)c1cc2ccccc2o1 (centres undefined)
0.06,-1.8,COc1ccc(-n2nnnc2SCC(=O)Nc2ccc(OC)cc2OC)cc1
2.2,0.68,Cc1cc(C)cc(N=C2NC(=O)CS2)c1
0.69,0,Nc1nnc(SCCCC(=O)c2ccc(F)cc2)s1

Part of the list above in a different format:
structure	KCNQ2 pot	KCNQ2 pot baseline
CC(=O)Nc1ccc(N(C(=O)c2ccco2)C(C(=O)NC2CCCC2)c2ccncc2)cc1 (centres undefined)	2	-1.4
COc1ccccc1-n1c(CNc2c(C)cccc2C)nnc1SCC(=O)N1CCOCC1	0.86	1.8
COc1ccccc1-c1cc(C(F)(F)F)nc(N2CCCC2)n1	0.01	1.1
CCOC(=O)Cc1cc(=O)n2[nH]c(-c3ccccc3)c(-c3ccccc3)c2n1	1.1	-2.2
CCN1C(=O)CC(N2CCC(Nc3ccc(F)cc3)CC2)C1=O (centres undefined)	0.56	1.5
